Bead autofluor: compound fluorescence in toxin protease inhibitor counterscreen; compound autofluorescence counterscreen, microsphere flow cytometry; active compounds read high; fluorescence intensity (concentration not given with the values); actives 3.1% (n = 360,000); AID 624483;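 active = at least 3 SD above the mean of all compounds, about 16000 in these data; inconclusive = too few beads counted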;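 note: 100 nL of 1 mM stock went into each well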
PrP UTR inh: inhibition of PrP 5' UTR reporter expression; actives 0.35% (n = 340,000); cell-based PrP 5' UTR mRNA reporter, plate reader; inhibition, % (concentration not given with the values);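 active = every replicate at 50% or more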;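 note: 0 = median of the neutral control wells; tested in H4 reporter cells; numbers are from one replicate; inactives centre near -14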
BJeLR lethal: MLPCN primary cell-based screen for lethality selective to Ras in HRASV12 cells. actives 0.17% (n = 300,000). BJeLR (HRASV12) viability, CellTiter-Glo ATP luminescence, 48 h; reference of the scale not given here. inhibition, % (no concentration beside the values). AID 1554, 2009;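 active = replicate mean above 50%; inconclusive = above 50% but judged a plate artefact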;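 note: 50 nL library stock added to about 25 µL; numbers are from one replicate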
Mtb hypoxia rep: PubChem AID 1159583; M. tuberculosis hypoxia-regulated fluorescent reporter, fluorescence; fluorescence inhibition, % (test concentration not listed); actives 0.1% (n = 300,000);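 active = 35 to 45% if threefold the growth effect, above 45% if 1.5-fold the growth effect; inactive = the rest, general growth blockers included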;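 note: wells of about 50 µL received 100 nL stock; 0% = vehicle wells and 100% = reference inhibitor wells; whole bacteria with a GFP reporter of the hypoxia response; strong numbers were not always called active; many hits fall short of the cut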
Sa ugtP lethal: growth inhibition of ugtP-null S. aureus, primary screen, RN4220 ugtP deletion, OD600; 16 h; some inactives read as strong as hits; growth inhibition, % (no concentration beside the values); actives 0.54% (n = 330,000); AID 1259309, 2017;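 active = z-score under -3 and OD600 up to 0.15 on both plates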;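 note: plate controls were untreated wells for no effect and antibiotic for full effect; wells of about 80 µL received 100 nL stock; the first replicate is given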
Sa RN4220 lethal: growth inhibition of S. aureus RN4220, primary screen, OD600. 16 h. inhibition, % (concentration not given with the values). actives 0.33% (n = 330,000). AID 1259311, 2017;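 active = z-score of -3 or lower and OD600 up to 0.18 on both plates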;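 note: plate controls were untreated cells for no effect and reference antibiotic for full effect; stock transfer was 100 nL into about 80 µL; one replicate is shown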
Mtb hypoxia rep growth: second read-out of Mtb hypoxia rep, no call of its own (marks repeat the call); growth inhibition, %; measured here: M. tuberculosis growth (absorbance);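 0% = vehicle and 100% = reference antibiotic; read after six days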
Active calls of the source: *; ? = inconclusive; · = not tested or not shown.

Under each structure – Bead autofluor | PrP UTR inh | BJeLR lethal | Mtb hypoxia rep | Mtb hypoxia rep growth | Sa ugtP lethal | Sa RN4220 lethal
- CCn1c(SCC(=O)NCc2ccco2)nnc1C(C)C
→ 4592 | -3 | 5 | 10 | 12 | -1 | 0.6
- COc1cc(NC(=O)c2ccccc2Cl)ccc1NC(=O)c1ccco1
→ 4438 | -52 | 2 | · | · | -6 | 5.6
- COc1ccc(/C=C/C(=O)NCCCn2ccnc2)cc1
→ 2336 | 4 | 0 | 7 | 10 | 4 | 3.4
- CCn1c(SCC(=O)NCc2ccco2)nc2ccccc2c1=O
→ 4683 | 18 | 3 | 18 | 14 | 5 | -0.3
- CC1Cc2nc(SCC(=O)NCc3ccccc3)n(Cc3ccccc3)c(=O)c2S1 (stereo not drawn)
→ 5543 | -12 | -1 | -8 | 1 | -8 | -4.3
- CCS(=O)(=O)c1ccc(O)c(NC(=O)COc2ccc(Cl)cc2)c1
→ 2569 | -22 | -9 | 2 | 5 | -1 | 4.4
- COC(=O)c1ccc(NC(=O)Cc2ccc(C)cc2)cc1
→ 3806 | -25 | 7 | · | · | 0 | -2.9
- Cc1ccccc1NC(=O)COC(=O)C1C2CC3OC(=O)C1C3C2 (stereo not drawn)
→ 5324 | -15 | -12 | 13 | 0 | 2 | 1.7
- O=C(CC1SC(=O)NC1=O)Oc1ccc(/C=N/NC(=O)c2ccccc2O)cc1 (stereo not drawn)
→ 3435 | -24 | -1 | · | · | · | ·
- COc1ccc(NC(=O)c2cc(C)on2)cc1OC
→ 10083 | -11 | -10 | 3 | 10 | -2 | -0.2
- Cc1cc(C(=O)COC(=O)c2ccc(F)cc2)c(C)n1C
→ 8001 | 24 | · | 12 | 7 | 6 | 4.6
- Cc1cc(C)n(-c2nnc(C)n2N=Cc2ccccc2OCc2ccccc2Cl)n1
→ · | · | · | 6 | 0 | -16 | 13
- CCc1noc(C)c1C(=O)NNC(=O)c1ccccc1
→ 3655 | 0 | · | 0 | 4 | -3 | 3.8
- COC(=O)CCC(=O)Nc1ccc(Br)cc1
→ 2381 | -22 | -6 | · | · | 8 | 1.3
- CCOc1ccc(S(=O)(=O)Nc2nc3ccccc3nc2Cl)cc1
→ 3095 | -16 | -13 | 7 | 0 | -7 | 13
- O=C(Nc1ccccc1)c1ccc2nsnc2c1
→ 16341* | -36 | 0 | 1 | 0 | -6 | 3.9
- CC(C)(C)[C@H]1C=C(C(=O)N2CCOCC2)O[C@@H](OCCCCO)C1
→ 3212 | -7 | 11 | · | · | · | ·
- O=C(Nc1ccccc1C(=O)N1CCN(c2cccc(Cl)c2)CC1)C1=CSCCO1
→ 5365 | -8 | -3 | 1 | -6 | 0 | -0.6
- O=C(NC(=S)NC1CCN(Cc2ccccc2)CC1)c1ccc(F)cc1
→ 3530 | -27 | -1 | 7 | 8 | 44 | 0.9
- COc1cc2c(cc1OC)-c1c(OC)c(OC)cc3c1[C@H](C2)N(C)CC3
→ 3037 | 11 | -3 | · | · | · | ·
- Cc1cc(C)n(-c2ccc(S(=O)(=O)N3CCOCC3)cc2[N+](=O)[O-])n1
→ 4236 | -2 | 12 | 0 | -3 | 2 | 2.5
- CCCCC(CC)COC(=O)c1ccc(N(C)C)cc1 (stereo not drawn)
→ 6042 | -4 | · | 9 | 3 | 29 | 2.8
- Cc1ccc(NC(=O)CN(C)C(=O)c2cccc(S(=O)(=O)NCc3ccco3)c2)cc1
→ 3883 | -12 | · | -2 | 10 | -6 | 0.7
- COc1ccc(CN(C)CC(=O)Nc2ccccc2C(=O)NC2CC2)cc1OC
→ 3527 | -10 | · | -6 | 3 | 3 | 2.0
- Cc1ccc(NC(=O)c2nc[nH]c2C(=O)Nc2ccc(C)cc2)cc1
→ 2845 | -11 | -7 | · | · | -5 | 0.3
- COc1ccc(-c2n[nH]c(=S)n2N=C/C=C/c2ccccc2OC)cc1
→ · | · | · | 13 | 15 | -13 | 9.5
- O=S(=O)(Nc1ccc2ccccc2c1)N1CCCCC1
→ 3702 | -17 | · | · | · | -4 | 4.4
- C=CCOc1ccc(C=CC(=O)c2c(O)c(OC)c(OC)c(OC)c2OC)cc1
→ 3776 | -33 | · | 15 | 18 | 28 | 6.6
- CCCOc1ccc(C(=O)c2ccccc2C(=O)O)cc1OCCC
→ 3651 | -10 | -3 | 15 | 4 | 5 | 0.1
- COc1nccnc1NS(=O)(=O)c1ccc(NCc2cc(Br)ccc2O)cc1
→ 3563 | -31 | 2 | 0 | 2 | 41 | 42
- COc1ccccc1NS(=O)(=O)c1ccc(NC(=O)c2ccccn2)cc1
→ ? | 1 | · | 2 | 9 | -5 | 2.6
- COC(=O)C(C)Sc1ncnc2c1nnn2-c1ccc(F)cc1 (stereo not drawn)
→ 2955 | -16 | 6 | 4 | 1 | 0 | -13
- CCn1c(=O)cc(SCC(=O)Nc2cccc(C)n2)c2ccccc21
→ 2687 | -12 | -3 | -13 | -7 | 0 | 6.4
- COc1cccc(Cn2cnc3c(N)c(C)c(C)cc32)c1
→ 3394 | 0 | -2 | 14 | 8 | -6 | 2.4
- CCN(C(=O)c1ccc(S(=O)(=O)N2CCC(C)CC2)cc1)C1CCS(=O)(=O)C1 (stereo not drawn)
→ ? | -6 | 3 | 8 | 5 | 3 | 1.0
- O=C(NC1CCCC1)c1ccc(CS(=O)(=O)c2cccc(C(F)(F)F)c2)o1
→ 22398* | -10 | 3 | -9 | 2 | -2 | -1.5
- Cc1ccc(C(=O)NC(C)(COc2nonc2C)COc2nonc2C)cc1
→ 5427 | -38 | -5 | 7 | 4 | 3 | 6.8
- CCCCOCCCNC(=S)Nc1ccc(S(=O)(=O)N2CCOCC2)cc1
→ 3898 | -48 | -9 | 2 | -5 | -3 | 2.8
- O=C(CNS(=O)(=O)c1ccc2ccccc2c1)OCC(=O)c1ccc(Br)s1
→ 18275* | -17 | 8 | 3 | 2 | -3 | 0.5
- O=C(CCC(=O)N1CCOc2ccc(Cl)cc21)NCCCN1CCN(Cc2ccccc2)CC1
→ 5574 | -19 | -6 | 7 | 8 | -1 | -5.8
- CCOc1ccc(NC(c2ccccn2)c2oc(CO)cc(=O)c2O)cc1 (stereo not drawn)
→ 5702 | -44 | 0 | · | · | -7 | 4.9
- Cc1cccc(N2CCN(C(=O)c3ccccc3NC(=O)C3CC=CCC3C(=O)O)CC2)c1 (stereo not drawn)
→ 4976 | 2 | 2 | · | · | 3 | 0.9
- Cc1nn2c(CN(C(=O)CN3CCOCC3)c3ccccc3)nnc2c2ccccc12
→ 2226 | -30 | 5 | 15 | 7 | 4 | 5.4
- CC1CN(C(=O)COC(=O)Cc2ccc(Cl)cc2)CC(C)O1 (stereo not drawn)
→ 5109 | 11 | · | -5 | 8 | 2 | 3.1
- COc1ccc(NC(=O)C2CC(c3ccccc3O)=NO2)cc1OC (stereo not drawn)
→ 3711 | -24 | -4 | -3 | -2 | 2 | 0.6
- Cc1ccc(S(=O)(=O)c2c(C)cc(C)nc2N2CCCCC2)cc1
→ 4128 | 0 | 2 | 8 | 10 | 20 | 11
- CSc1nc(-c2ccccc2)c(C#N)c(=O)[nH]1
→ ? | -10 | 13 | 6 | 9 | 9 | 3.5
- Cc1ccc(/C=N/N2CCOCC2)s1
→ 4053 | -25 | 6 | · | · | · | ·
- Cc1ccc(N2C(=O)CC(Nc3ccccc3)C2=O)cc1 (stereo not drawn)
→ 10781 | -11 | -8 | 10 | 9 | 8 | 4.4
- CCOc1cc(C(=O)OCC(=O)Nc2ncc(Cl)c(C)c2Cl)ccc1OCC(=O)N1CCOCC1
→ 2492 | -13 | 1 | 6 | 2 | -1 | 4.0
- CCCCNC(=O)c1onc(CSc2ccccc2)c1C(=O)O
→ 3631 | -20 | -4 | 3 | 3 | 1 | 12
- CC1Cc2nc(SCC(=O)NC3CCCCC3)n(C)c(=O)c2S1 (stereo not drawn)
→ 7715 | -5 | -8 | 6 | 6 | 7 | 7.1
- COc1cccc2cc(C(=O)NCCC3=CCCCC3)c(=O)oc12
→ 2079 | -25 | -8 | -4 | -1 | 2 | 12
- O=C(Nc1cccc(Cl)c1)Nc1nccs1
→ 16192* | -27 | 9 | 7 | -7 | -28 | -1.6
- CSc1ccc(CCCCCCOC(=O)C(C)(C)C)cc1
→ 2846 | -14 | · | 4 | 5 | 3 | 3.8
- O=C(Cc1cccs1)N[C@@H]1c2ccccc2CC[C@@H]1OCc1ccccc1
→ 3841 | -14 | · | -10 | -10 | 2 | -1.1
- Cc1cc(C)c2c(c1)cc(C)c1nnc(SCC(=O)Nc3ccc(S(=O)(=O)N4CCCCC4)cc3)n12
→ 2241 | -12 | -20 | 0 | 6 | 5 | 3.0
- O=C(COc1coc(CN2CCN(c3ccccc3)CC2)cc1=O)NC1CCCCC1
→ 3846 | -11 | -9 | 9 | -4 | 12 | 5.3
- COc1ccc(CC(C)Nc2cccc(SC)c2)cc1 (stereo not drawn)
→ 3723 | -1 | 15 | 2 | 1 | 14 | 2.9
- CCOc1cc(/C=N/NC(=O)CSc2nncn2C)ccc1OC(=O)c1ccc(Cl)cc1
→ 2498 | -17 | -13 | · | · | · | ·

Further structures
Under each structure – Bead autofluor | PrP UTR inh | BJeLR lethal | Mtb hypoxia rep | Mtb hypoxia rep growth | Sa ugtP lethal | Sa RN4220 lethal
- CC(C)c1nccn1S(=O)(=O)c1cccc([N+](=O)[O-])c1
→ 2104 | -34 | · | 1 | 5 | 2 | 2.2
- COC(=O)c1sccc1NC(=O)CC1C(=O)NCCN1C(=O)c1c(F)cccc1Cl (stereo not drawn)
→ 6287 | -26 | 1 | -2 | -5 | -1 | 1.5
- O=C(NCc1ccc(F)cc1)C1CCN(S(=O)(=O)c2ccc3c(c2)OCCCO3)CC1
→ 6963 | -23 | 0 | 3 | 6 | 5 | -0.6
- CCC(C)c1ccccc1N1CC(C(=O)Nc2ccc(S(=O)(=O)N3CCOCC3)cc2)CC1=O (stereo not drawn)
→ ? | -12 | -2 | -7 | 1 | 0 | 0.3
- CNCCc1ccccn1
→ 6005 | -24 | 0 | 8 | 4 | 1 | 7.1
- C=CCN1CC(c2nc3ccccc3n2Cc2ccccc2)CC1=O (stereo not drawn)
→ 20701* | -19 | 2 | 3 | 7 | 2 | 4.7
- Brc1cccc(CN2CCCCCC2)c1
→ 3896 | -19 | 4 | 5 | 2 | -1 | 5.1
- CCc1ccccc1NC(=O)c1ccc2nc(N3CCOCC3)sc2c1
→ 4423 | -11 | -3 | -2 | -1 | 9 | 4.2
- COc1ccc(CC(=O)OCC(=O)Nc2ccc3[nH]c(=O)[nH]c3c2)cc1
→ 5508 | -10 | -2 | 4 | -2 | 0 | 5.2
- CN(C)CCCN1C(=O)C(=O)/C(=C(/O)c2ccncc2)C1c1cccc(Br)c1 (stereo not drawn)
→ 2438 | -15 | -12 | 10 | 0 | 1 | -6.3
- CCOC(=O)C1(CC)NC(c2ccco2)C2C(=O)N(CC)C(=O)C21 (stereo not drawn)
→ 6664 | -29 | 2 | 10 | -3 | 10 | 3.6
- CCOC(=O)c1nnn(-c2nonc2N)c1CN(CC)c1ccccc1
→ 2594 | 8 | -2 | · | · | -2 | 12
- CC1CN(S(=O)(=O)c2cccc(C(=O)NCc3ccccn3)c2)CC(C)O1 (stereo not drawn)
→ 7890 | -3 | · | 4 | 1 | 4 | 3.6
- S=C(NCc1cccnc1)c1ccccc1
→ 4130 | -22 | -2 | 7 | -3 | 8 | 4.1
- O=C(Cn1cccc1C(=O)c1ccccc1)NCc1cccs1
→ 2846 | -11 | -10 | 9 | 0 | 3 | 5.2
- CCOc1ccccc1NC(=O)CSc1nnc(Cc2cccn2C)n1-c1ccc(F)cc1
→ 6165 | -20 | 0 | · | · | 10 | -2.8
- c1ccc2nc3c(ccc4ccccc43)cc2c1
→ 3032 | -89 | · | -8 | 1 | 38 | -4.2

Whole records as entered above.
Record of O=C(COc1coc(CN2CCN(c3ccccc3)CC2)cc1=O)NC1CCCCC1 = Bead autofluor = 3846; PrP UTR inh = -11; BJeLR lethal = -9; Mtb hypoxia rep = 9; Mtb hypoxia rep growth = -4; Sa ugtP lethal = 12; Sa RN4220 lethal = 5.3
Record of CCn1c(SCC(=O)NCc2ccco2)nnc1C(C)C = Bead autofluor = 4592; PrP UTR inh = -3; BJeLR lethal = 5; Mtb hypoxia rep = 10; Mtb hypoxia rep growth = 12; Sa ugtP lethal = -1; Sa RN4220 lethal = 0.6
